# SARS PLP yeast: SARS-CoV PLP inhibition in yeast | S. cerevisiae expressing SARS-CoV PLpro, growth rescue; control for the full effect not named in the record | Potency, µM (top dose mostly 32.9 µM), without a hit: at the highest dose activity, positive = growth rescue | actives 0.19% (n = 330,000) | AID 485353; also: 0% is about no effect; nearly all actives have a fitted effect of over 55% in size; growth read by luminescence after 48 h
# Lassa entry inh: inhibitors of Lassa virus binding or cell entry; Lassa virus pseudotype entry inhibition, cell reporter; control for the full effect not named in the record; Potency, µM (doses to about 37.9 µM), for the others: top-dose activity change, negative = inhibition, hits mostly inhibitors; actives 1.2% (n = 300,000); AID 540256; active means well fitted inhibition curve with a large enough effect; inconclusive means small, poorly fitted or top-dose-only effect, or effect the other way; inactive means flat fitted curve, though single readings scatter; tested in HEK293 cells; also: % is scaled to controls: 0 for no effect and ±100 for the full control effect; nearly all actives have a fitted effect of over 50% in size; luciferase read-out
# Cruzain inh Det: blocks cruzain activity in presence of Triton detergent. P25779. purified cruzain, Z-FR-AMC fluorescence, 0.01% Triton. Potency, µM, inactives show max response, negative = inhibition, usual class: inhibitors. actives 0.43% (n = 200,000); active = well fitted curve in the direction sought with a large enough effect; inconclusive = small, poorly fitted or top-dose-only effect, or another doubt; inactive = no such curve, though single readings can be large; an effect the other way counts as inactive or inconclusive;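 also: plate controls were neutral wells for no effect and buffer without enzyme for full effect; nearly all actives have a fitted effect of over 40% in size; top concentration of the series not given in the record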
# Target sequence (P25779 123-467 limits assumed): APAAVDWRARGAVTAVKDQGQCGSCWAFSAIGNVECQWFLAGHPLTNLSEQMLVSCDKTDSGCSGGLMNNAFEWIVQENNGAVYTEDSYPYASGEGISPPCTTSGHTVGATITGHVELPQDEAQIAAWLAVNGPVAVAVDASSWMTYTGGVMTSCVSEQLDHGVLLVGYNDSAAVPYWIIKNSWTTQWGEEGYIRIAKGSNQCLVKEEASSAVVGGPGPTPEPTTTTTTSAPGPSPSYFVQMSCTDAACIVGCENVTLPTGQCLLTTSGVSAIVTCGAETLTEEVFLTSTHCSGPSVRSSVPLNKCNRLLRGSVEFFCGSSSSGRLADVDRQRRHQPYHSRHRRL
#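 Sodium acetate buffer (100 mM, pH 5.5) containing 5 mM DTT and 0.01% Triton X-100 hosted 1.5 nM cruzain and test compound for 15 min at room temperature. Cleavage of 2 uM Z-FR-AMC was then tracked by fluorescence.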
# RE007 growth inh: less growth of the S. pombe RE007 Vpr strain | Potency, µM (series often up to 92.2 µM), for the others: at the top dose activity change, negative = less growth | actives 0.21% (n = 360,000) | S. pombe RE007 Vpr strain, BacTiter-Glo ATP luminescence, 24 h; control for the full effect not named in the record; active = well fitted falling curve with a large enough effect; inconclusive = small, poorly fitted or top-dose-only effect; inactive = no such curve, though single readings can be large or run the other way;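 also: % is scaled to controls: 0 for no effect and ±100 for the full control effect; nearly all actives have a fitted effect of over 50% in size; the assay follows cell death caused by Vpr and the record does not say whether a fall means rescue or toxicity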
#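 Fission yeast strain RE007, carrying one chromosomally integrated HIV-1 vpr copy, was seeded at OD 0.01 in PMG+AL medium with 23 nL pinned compound. After 24 h at 30 °C and 99% humidity, viability was read by BacTiter-Glo luminescence.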
# Cruzain noTriton: cruzain (T. cruzi) inhibition without detergent. P25779. purified cruzain, Z-FR-AMC fluorescence, no detergent. Potency, µM, for the others: max response, negative = inhibition, most hits filed as inhibitors. actives 2.3% (n = 200,000). AID 1476; active = well fitted curve in the direction sought with a large enough effect; inconclusive = small, poorly fitted or top-dose-only effect, or another doubt; inactive = no such curve, though single readings can be large; an effect the other way counts as inactive or inconclusive;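 also: plate controls were enzyme without inhibitor for no effect and buffer without enzyme for full effect; nearly all actives have a fitted effect of over 40% in size; top concentration of the series not given in the record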
#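 Purified cruzain at 1.5 nM, pre-incubated 15 min with compound at room temperature in 100 mM sodium acetate pH 5.5, 5 mM DTT, 0.00005% Triton X-100. Reaction started with 2 uM Z-FR-AMC; AMC fluorescence increase over 60 s gives rate.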
# StopGo reporter: lowers the luciferase signal of an FMDV 2A StopGo reporter; human cells with a luciferase reporter of 2A StopGo recoding; control for the full effect not named in the record; Potency, µM (top dose mostly 57.9 µM), inactives show at the highest dose signal change, negative = less light; actives 1.2% (n = 410,000); AID 1159524; active = well fitted falling curve with a large enough effect; inconclusive = small, poorly fitted or top-dose-only effect; inactive = no such curve, though single readings can be large or run the other way; tested in HEK293T cells; also: % is scaled to controls: 0 for no effect and ±100 for the full control effect; nearly all actives have a fitted effect of over 45% in size; luciferase light after 4 h
# MARV entry inh: blocks Marburg virus binding to or entry into cells | Marburg virus pseudotyped entry inhibition, cell reporter; control for the full effect not named in the record; about a third of the inactives were read at about 46 µM | Potency, µM (doses to about 37.8 µM), without a hit: at the highest dose activity change, negative = inhibition, actives largely listed as inhibitors | actives 1.8% (n = 300,000) | AID 540276; active = well fitted inhibition curve with a large enough effect; inconclusive = small, poorly fitted or top-dose-only effect, or effect the other way; inactive = flat fitted curve, though single readings scatter; tested in HEK293 cells; about a fifth of its hits are not listed in these tables; also: % is scaled to controls: 0 for no effect and ±100 for the full control effect; luciferase read-out
# NS1 function inh: inhibitors of influenza NS1 protein function. actives 0.4% (n = 270,000). Potency, µM (doses to about 46.1 µM), for the others: at the top dose activity, positive = more growth. S. cerevisiae slowed by influenza A NS1, growth recovery by OD600; also: actives are rising curves; nearly all actives have a fitted effect of over 50% in size
#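 S. cerevisiae expressing influenza A NS1, grown in glucose, washed, then diluted 1:100 into pH 6.0 -URA galactose medium with 23 nl compound. Growth recovery read as OD600; NS1-free strain serves as control.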
# Numbers without * were called inactive; ? = inconclusive; · = not tested or not shown; & = joins results of further samples; [ ] = dose if it differs, or a comment. Unless noted, calls follow the shape of the dose curve; as a rule, active means well fitted rising curve with a large enough effect; inconclusive means small, poorly fitted or top-dose-only effect; inactive means no such curve, though single readings can be large or run the other way. Potency is read from the fitted curve at half-maximal effect.
entry	structure	SARS PLP yeast	Lassa entry inh	Cruzain inh Det	RE007 growth inh
1	CCOC(=O)c1cc(NC(=O)c2ccc(C)cc2)c(=O)oc1C(F)(F)F	0%	3%	·	1%
2	COc1ccc(NC(=O)CSc2cc(-c3ccccc3)nc(C)n2)cc1	·	6%[46.1 µM]	-5.5%	·
3	CCCN1CCN(C(=O)c2ccc3nc(CC)c(CC)nc3c2)CC1	-1%	-24%	·	0%
4	Cc1c(NC(=O)c2ccc(F)c(S(=O)(=O)N3CCOCC3)c2)c(=O)n(-c2ccccc2)n1C	0%	6%	0.8%	-18%
5	CCc1cccc2c(=O)c(C(=O)NCCCOC)c[nH]c12	0%	-2%	·	-17%
6	C=C1CCN(Cc2ccccc2)S(=O)(=O)c2ccccc21	-1%	·	·	0%
7	Cc1ccc(S(=O)(=O)NCCC(=O)NNC(=O)c2ccccc2O)cc1C	1%	-2%	·	11%
8	CC(C)c1nc2n(n1)C1(CCCCC1)[C@@H]1CCCC[C@@H]1N2	·	-1%[46.1 µM]	-2.2%	·
9	CCOC(=O)/C(=C/C=C/c1ccccc1)NC(=O)c1ccccc1	-1%	13%	-26%	28%
10	COc1ccc(OC)c(NC(=O)N2C[C@H]3C[C@@H](C2)c2cccc(=O)n2C3)c1	-2%	·	·	7%
11	COc1cc(/C=C(\C#N)c2nn(CCO)c(N)c2C#N)cc(OC)c1OC	7%	-17%	·	-1%
12	COc1ccc(CC(=O)Nc2ccc(S(=O)(=O)NC(C)C)cc2)cc1	-5%	-7%	-3.1%	9%
13	CCOc1ccc(C(=O)N2CCc3cc(OC)c(OC)cc3C2COc2ccc3c(C)cc(=O)oc3c2)cc1OCC (stereo unspecified)	·	6%[46.1 µM]	5.9%	·
14	COc1cccc(C(=O)OCC(=O)NCc2ccc3c(c2)OCO3)c1OC	-22%	19%	·	12%
15	COc1ccc(/C=N/n2c(=O)[nH]c3c([nH]c4ccc(C)cc43)c2=O)cc1CN1CCOCC1	2%	-1%	-3.6%	12%

entry	Cruzain noTriton	StopGo reporter	MARV entry inh	NS1 function inh
1	·	19%	30%	·
2	2%	-13%	-16%[46.1 µM]	·
3	·	5%	-9%	3%
4	-11%	-20%	4%	8%
5	·	1%	1%	3%
6	·	-5%	·	-6%
7	·	-14%	0%	·
8	-3%	-16%	-16%[46.1 µM]	·
9	-13%	-16%	0%[46.1 µM]	-15%
10	·	-26%	·	-3%
11	·	-10%	?	-2%
12	-5%	-5%	-4%	8%
13	22%	-26%	?	·
14	·	-5%	-5%	·
15	1%	-9%	-4%	0%

# Sorted by count of non-hydrogen atoms (low to high): part of the list above.
entry	structure	SARS PLP yeast	Lassa entry inh	Cruzain inh Det	RE007 growth inh
2	COc1ccc(NC(=O)CSc2cc(-c3ccccc3)nc(C)n2)cc1	·	6%[46.1 µM]	-5.5%	·
11	COc1cc(/C=C(\C#N)c2nn(CCO)c(N)c2C#N)cc(OC)c1OC	7%	-17%	·	-1%
15	COc1ccc(/C=N/n2c(=O)[nH]c3c([nH]c4ccc(C)cc43)c2=O)cc1CN1CCOCC1	2%	-1%	-3.6%	12%

entry	Cruzain noTriton	StopGo reporter	MARV entry inh	NS1 function inh
2	2%	-13%	-16%[46.1 µM]	·
11	·	-10%	?	-2%
15	1%	-9%	-4%	0%

# Other results:
entry	structure	SARS PLP yeast	Lassa entry inh	Cruzain inh Det	RE007 growth inh
16	CN(CC(=O)Nc1ccccc1Cl)C(=O)c1ccccc1SCC(=O)N1CCCC1	1%	19%	·	-11%
17	COc1ccc(NC(=O)C2CCCN(S(=O)(=O)c3cnc[nH]3)C2)cc1 (stereo unspecified)	-7%	·	1.2%	0%
18	COc1ccc(-c2cc(C(=O)Nc3ccc(C(N)=O)cc3)c3ccccc3n2)cc1OC	4%	-21%	·	3%
19	COc1ccc(COC(=O)C2=C(C)NC(=O)NC2c2cccc(Br)c2)cc1 (stereo unspecified)	1%	·	·	8%
20	CCOC(=O)C1(Cc2cccc(OC)c2)CCN(CCO)CC1	0%	9%	·	1%
21	Cc1onc(-c2c(F)cccc2Cl)c1C(N)=S	1%	?	·	97%
22	COc1ccc(N(C)S(=O)(=O)c2cccc(C(=O)NCC(c3ccco3)N3CCCC3)c2)cc1 (stereo unspecified)	0%	-27%	·	-12%
23	Cc1ccc(C(=O)Nc2ccc3c(c2)n(C)c(=O)c(=O)n3C)cc1	·	14%[46.1 µM]	-7.1%	·
24	CCN(CC)S(=O)(=O)c1cc(NC(=O)C(C)N2CCN(c3ccccn3)CC2)ccc1C (stereo unspecified)	-5%	?	·	-7%
25	Oc1ccc(/C=N/N2CCN(C3c4ccccc4-c4ccccc43)CC2)cc1	1%	-10%	·	-6%
26	COc1ccc(-c2noc(CN(C)CCC3CCCCO3)n2)cc1 (stereo unspecified)	1%	3%	·	?
27	CCOC(=O)C(=Cc1ccc(Br)cc1)C(=O)OCC	-4%	?	·	?
28	O=C(c1c(Cl)cccc1Cl)N1CCN(c2ncccn2)CC1	-1%	·	·	13%
29	COc1cc(CCC(=O)Nc2ccc(C)c(S(=O)(=O)N(C)C)c2)cc(OC)c1OC	-7%	?	2.8%	-11%
30	Cn1c(=O)cc(Cl)[nH]c1=O	3%	6%[46.1 µM]	·	-3%

entry	Cruzain noTriton	StopGo reporter	MARV entry inh	NS1 function inh
16	·	-17%	6%	·
17	-7%	-15%	·	?
18	·	-9%	?	·
19	·	?	·	15%
20	·	-16%	0%[46.1 µM]	0%
21	·	3%	16%[46.1 µM]	·
22	·	-21%	-29%	·
23	7%	-15%	22%[46.1 µM]	·
24	·	-23%	?	·
25	·	-14%	6%[46.1 µM]	8%
26	·	-15%	1%[46.1 µM]	-1%
27	·	22µM*	?	-114%
28	·	-13%	·	-3%
29	29%	28µM*	?	-5%
30	·	-5%	0%[46.1 µM]	·

# Other structures
entry	structure	SARS PLP yeast	Lassa entry inh	Cruzain inh Det	RE007 growth inh
31	CCOc1ccc(NC(=O)C(=S)NC2CCCCC2)cc1	0%	15%	·	10%
32	COc1ccc(C)cc1NC(=O)Cn1c(=O)ccc2cc(S(=O)(=O)N3CCC(C)CC3)ccc21	·	2%[46.1 µM]	-2.8%	·
33	CC(=C\c1ccccc1)/C=C1/SC(=S)N(CCCC(=O)O)C1=O	1%	?	·	-4%
34	Cc1cc(C)cc(N2C(=O)CC(Cn3nc(C)cc3C)C2=O)c1 (stereo unspecified)	0%	4%[46.1 µM]	·	8%
35	OC(COc1ccc2cc(Br)ccc2c1)CN1CCCC1 (stereo unspecified)	-7%	0%	-8.8%	-8%
36	COc1ccc(C(=O)OCC(=O)Nc2ccc(F)cc2F)cc1OC	-11%	-19%	3.8%	9%
37	O=C(COc1ccccc1O)Nc1ccc(Cl)cc1	-7%	-27%	-3.8%	20%
38	CNc1nc2c(c(=O)n(C)c(=O)n2C)n1Cc1ccccc1	4%	-16%	1.9%	2%
39	COc1ccc2[nH]c3c(=O)n(N)c(=O)[nH]c3c2c1	0%	·	·	21%
40	CCCOc1ccc(N2C(=O)CC(N(Cc3ccc(OC)cc3)C(=S)Nc3ccccc3)C2=O)cc1 (stereo unspecified)	13%	-22%	-1.3%	-12%
41	Nc1c(-c2nc(-c3cccs3)no2)nnn1-c1ccccc1Cl	·	34%[46.1 µM]	0.5%	·
42	Cc1c(N=Cc2cccnc2)c(=O)n(-c2ccccc2)n1C	-18%	6%	2.0%	3%
43	CCNc1ccc(P(=S)(N(C)C)N(C)C)cc1	-9%	-10%	-2.4%	7%
44	CNC(=O)O/N=C/c1nn(C(=O)C(C)(C)C)cc1Br	1%	1%	·	-3%
45	C/C(=N/NC(=O)c1cccs1)c1c(C)[nH]n(-c2nc3ccccc3s2)c1=O	-68%	?	-8.9%	?

entry	Cruzain noTriton	StopGo reporter	MARV entry inh	NS1 function inh
31	·	45%[activator]	?	0%
32	?	-28%	·	·
33	·	?	?	-7%
34	·	-1%	9%[46.1 µM]	-1%
35	-21%	-7%	8.2µM*	-1%
36	4%	12%	-21%[46.1 µM]	-10%
37	-4%	5%	-2%	-34%
38	2%	?	?	7%
39	·	15%	·	1%
40	-6%	-1%	?	6%
41	-3%	20%	·	·
42	-9%	-3%	10%	0%
43	-1%	-17%	-1%	2%
44	·	5%	?	-4%
45	8%	-15%	4.6µM*	29%

# Numbers 1–2 of the list above:
entry	structure	SARS PLP yeast	Lassa entry inh	Cruzain inh Det	RE007 growth inh
1	CCOC(=O)c1cc(NC(=O)c2ccc(C)cc2)c(=O)oc1C(F)(F)F	0%	3%	·	1%
2	COc1ccc(NC(=O)CSc2cc(-c3ccccc3)nc(C)n2)cc1	·	6%[46.1 µM]	-5.5%	·

entry	Cruzain noTriton	StopGo reporter	MARV entry inh	NS1 function inh
1	·	19%	30%	·
2	2%	-13%	-16%[46.1 µM]	·

# (more compounds)
entry	structure	SARS PLP yeast	Lassa entry inh	Cruzain inh Det	RE007 growth inh
46	COC1OC(COC(=O)c2ccccc2)C(OC(=O)c2ccccc2)C1OC(=O)c1ccccc1 (stereo unspecified)	2%	·	·	5%
47	Cc1cc(C)[n+](-c2ccc(Oc3ccccc3)c(S(=O)(=O)[O-])c2)[nH]1	-1%	?	·	-8%
48	CCCN1C(C(=O)c2ccccc2)=C(OC(=O)c2ccc(F)cc2)c2ccccc2S1(=O)=O	·	-21%[46.1 µM]	-6.0%	·
49	COC(=O)c1scc(-c2ccc(C)cc2)c1S(=O)(=O)Nc1ccc(F)cc1F	·	-2%[46.1 µM]	-7.8%	·
50	O=C(O)c1cc(N/N=C/C(Cl)=C/c2ccccc2)ccc1Cl	1%	?	·	-9%
51	CCn1cc(C2=NOC(C(=O)Nc3cc(C)nn3-c3ccccc3)C2)c(C)n1 (stereo unspecified)	2%	-18%	2.7%	-9%

entry	Cruzain noTriton	StopGo reporter	MARV entry inh	NS1 function inh
46	·	-20%	·	-10%
47	·	8%	-2%	-5%
48	?	-8%	-14%[46.1 µM]	·
49	-10%	43%[activator]	·	·
50	·	-91%	?	·
51	-5%	-26%	0%&-8%	-1%
